Assay outcomes as filed in PubChem.
Beta apoptosis = blocks beta cell apoptosis. AID 435005. actives 0.8% (n = 300,000). INS-1E cytokine-induced death, ATP luminescence, 48 h; percent of positive-control rescue, neutral wells zero. protection from apoptosis, % (no concentration beside the values);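 active = all replicates at 75% or more, or half of them and the mean; inconclusive = half reach 75% but not the mean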;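 note: 0% = cytokine-treated negative control wells and 100% = positive control rescue; higher means more ATP so stronger rescue from cytokine killing; wells of about 40 µL received 100 nL stock; the first replicate is given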
RanGTP-Impb inh = inhibitors of RanGTP-importin-beta interaction, primary screen, biochemical, FRET, CFP-Ran, YFP-importin-beta, homogeneous; cell-free CFP-Ran/YFP-importin-beta FRET ratio; actives 1.1% (n = 300,000); inhibition, % (test concentration not listed);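 active = most replicates above 15%; inconclusive = exactly half above 15%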;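 note: 0% = DMSO wells and 100% = Ran loaded with GDP instead of GTP; wells of about 40 µL received 100 nL stock; the first replicate is given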
AF4-AF9 inh = MLL-AF4/AF9 protein interaction inhibition; P42568; AlphaScreen, biotin-AF4 peptide binding to FLAG-AF9; inhibition, % at 10 µM; actives 0.47% (n = 350,000); AID 651704;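 active = every replicate reaching a set inhibition limit, whatever the replicate mean, cut at about 25% in these data; inconclusive = mean inhibition reaches that limit but some replicates miss it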;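 note: 0% = plate neutral control median and 100% = total signal loss; the record names both 10 and 1 µM as test concentration; the first replicate is given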
Calb FLC = C. albicans growth modulation with fluconazole | C. albicans CaCi-2 (fluconazole-resistant clinical isolate) + fluconazole, Alamar Blue growth, 48 h | growth inhibition, % (test concentration not listed) | actives 0.57% (n = 300,000) | AID 1979;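 active = most replicates above 75%; inconclusive = exactly half above 75%; inactive = most below 75%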;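 note: all wells also contain fluconazole at 8 µg/ml as a sub-toxic cotreatment; 0% = median of DMSO wells and 100% = median of geldanamycin control wells; wells of about 8 µL received 7.5 nL stock; the first replicate is given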
Vif A3G = inhibitors of Vif binding to APOBEC3G peptide, primary screen, biochemical, TR-FRET, GST-Vif 1-94, biotin-A3G peptide, dose response retest (AID 1117319); one-dose inhibition, %; IC50 in µM for titrated hits; TR-FRET GST-Vif / biotin-A3G peptide binding; higher % means a stronger effect; test concentration not given here; strong numbers were not always called active; actives 0.57% (n = 260,000);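 active = above the screen mean plus three standard deviations and confirmed in dose response; inconclusive = results disagree or hit not tested in dose response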;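 note: Vif residues 1-94 fused to GST binding biotinylated APOBEC3G peptide 110-148; 0% = full assay without inhibitor and 100% = GST in place of GST-Vif; retest series ran down from 100 µM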
T cruzi inh = T. cruzi replication inhibition; T. cruzi beta-gal in NIH3T3, luminescence, 90 h; inhibition, % (no concentration beside the values); actives 1.4% (n = 300,000);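 active = mean inhibition across valid replicates above about 55%, limit read from the data; inconclusive = mean below that limit but half or more replicates reach it; inactive = mean below it, under half of replicates reach it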;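 note: signal also drops with host cell toxicity which is not excluded here; 0% = plate median of DMSO wells and 100% = zero luminescence signal; higher percent means less beta-gal luminescence so fewer parasites; stock transfer was 50 nL into about 50 µL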
Bfl-1 A1 inh = inhibitors of the anti-apoptotic protein A1, read as caspase activation; MEF A1-2A-BIM cells, Caspase-Glo 3/7 luminescence, 3 h; percent of clofoctol response, vehicle zero; caspase activation, % (no concentration beside the values); actives 0.066% (n = 330,000); AID 2462;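 active = over half of replicate activation scores above 10%, or exactly half above 10 with the replicate mean above 10; inconclusive = replicate mean below 10 yet half the replicates above 10; inactive = over half of replicates below 10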;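 note: wells of about 30 µL received 50 nL stock; many hits fall short of the cut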
LANA-H2A inh = blocks KSHV LANA binding to histone H2A/H2B. cell-free LANA-H2A/H2B peptide, fluorescence polarization. inhibition, % (test concentration not listed). actives 0.6% (n = 320,000). AID 2629; in the data active = inhibition mostly above about 10%, no sharp cut-off; inactive = mostly below about 6.7%;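 note: stock transfer was 7.5 nL into about 10 µL; 0% = median of vehicle wells and 100% = median of positive control wells; one replicate is shown; the record names a cut of 25% in any replicate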
Target sequence (Q9QR71 whole entry, looked up): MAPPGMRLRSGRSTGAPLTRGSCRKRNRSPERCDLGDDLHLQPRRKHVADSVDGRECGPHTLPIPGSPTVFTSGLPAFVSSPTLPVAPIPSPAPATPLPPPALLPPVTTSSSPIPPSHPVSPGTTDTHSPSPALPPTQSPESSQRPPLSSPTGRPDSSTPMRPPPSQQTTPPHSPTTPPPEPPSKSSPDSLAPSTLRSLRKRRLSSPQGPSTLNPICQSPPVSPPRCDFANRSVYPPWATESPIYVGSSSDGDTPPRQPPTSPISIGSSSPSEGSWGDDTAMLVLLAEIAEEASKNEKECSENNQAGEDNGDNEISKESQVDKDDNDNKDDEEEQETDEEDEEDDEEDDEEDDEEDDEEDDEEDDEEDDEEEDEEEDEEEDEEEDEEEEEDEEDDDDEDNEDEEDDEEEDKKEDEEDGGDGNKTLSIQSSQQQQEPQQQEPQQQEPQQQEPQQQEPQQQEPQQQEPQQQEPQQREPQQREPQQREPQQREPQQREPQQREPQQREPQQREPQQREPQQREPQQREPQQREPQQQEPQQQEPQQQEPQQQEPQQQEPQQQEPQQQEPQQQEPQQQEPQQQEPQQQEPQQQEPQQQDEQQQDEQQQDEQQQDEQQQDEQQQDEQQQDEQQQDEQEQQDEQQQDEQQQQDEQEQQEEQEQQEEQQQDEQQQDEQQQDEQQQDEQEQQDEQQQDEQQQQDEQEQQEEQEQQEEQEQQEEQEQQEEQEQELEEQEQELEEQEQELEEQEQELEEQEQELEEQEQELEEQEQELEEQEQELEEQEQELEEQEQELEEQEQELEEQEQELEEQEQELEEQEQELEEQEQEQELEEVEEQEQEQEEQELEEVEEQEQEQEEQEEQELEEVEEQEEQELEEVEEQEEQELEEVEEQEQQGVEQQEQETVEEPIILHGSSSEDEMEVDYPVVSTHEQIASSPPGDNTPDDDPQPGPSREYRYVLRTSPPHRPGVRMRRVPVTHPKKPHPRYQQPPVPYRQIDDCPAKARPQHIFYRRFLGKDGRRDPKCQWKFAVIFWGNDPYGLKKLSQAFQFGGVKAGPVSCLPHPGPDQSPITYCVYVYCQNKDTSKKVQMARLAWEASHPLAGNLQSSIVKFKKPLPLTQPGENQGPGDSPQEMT
* = called active by the depositor; ? = inconclusive; . = not tested or not shown; & = joins results of further samples.

SMILES	Beta apoptosis	RanGTP-Impb inh	AF4-AF9 inh	Calb FLC	Vif A3G	T cruzi inh	Bfl-1 A1 inh	LANA-H2A inh
O=C(CCNC(=O)c1ccco1)Nc1ccccc1OC(F)F	-6	6.8	-0.7	2	.	2	-0.4	2.2
Cc1cccc(NC(=O)CSc2nc3ccccc3nc2N2CCCC2)c1	-3	4.1	-5.2	-1	.	-1	-0.7	3.4
CCOC(=O)C(=O)c1cn(C2OCC(OC(C)=O)C(OC(C)=O)C2OC(C)=O)c2ccccc12 (stereo not given)	-2	4.3	.	2	?	-5	-0.4	0.5
CCOc1ccc(S(=O)(=O)N2CCC(C(=O)NCc3cccnc3)CC2)cc1Cl	.	0.1	-15	-2	.	-13	0.1	-0.9
Cc1ccc(NS(=O)(=O)c2cc(NC(=O)c3ccc4c(c3)NC(=O)CS4)ccc2C)c(C)c1	15	4.0	-1.4	2	.	16	0.5	3.6
CC(C)C(C(=O)O)N1C(=O)/C(=C/c2cccn2C)SC1=S (stereo not given)	-1	.	2.0	.	5%	.	2.0	-16
COc1ccccc1N1CCN(C(=O)C(=O)c2c(C)[nH]c3ccccc23)CC1	2	-1.3	-0.6	20	.	1	0.4	2.5
CCOC(=O)CSc1nnc(C)c(C)n1	-9	0.3	.	-5	.	-13	0.7	2.3
Cc1sc2nc(CSC(C)C(=O)N(C)CC(=O)Nc3ccccc3C(F)(F)F)[nH]c(=O)c2c1C (stereo not given)	-6	-7.9	-19	4	2%	-2	0.1	-1.8
COC(=O)Cc1cc(=O)[nH]c(Nc2nc3ccccc3o2)n1	-4	-1.3	.	-10	?	-1	-0.6	-1.1
COc1ccccc1NC(=O)c1c(C)oc2c1CCCC2	-1	-1.7	.	-4	-7%	24	0.7	5.3
O=C(CCn1cnc2ccccc21)N=Nc1c(O)[nH]c2ccccc12	0	-1.6	-16	-14	-2%	14	0.4	-0.1
CS(=O)(=O)N(CC(=O)Nc1ccc(S(=O)(=O)N2CCOCC2)cc1)c1cccc(F)c1	-1	2.3	-1.1	6	29%	-4	0.1	-4.6
Cc1cccc(N2CCCn3c2nc2c3c(=O)[nH]c(=O)n2C)c1	-2	-7.5	0.1	4	-14%	-14	0.0	2.8
COc1ccc(C(=O)Nc2ccccc2C(=O)NCCCn2ccnc2)cc1	.	3.1	2.5	57	-3%	11	.	-12
Cc1ccc(S(=O)(=O)NC(=O)c2ccc(Br)o2)cc1	-2	5.9	-8.6	-5	30%	-2	0.0	-5.5
Cc1cc(NC(=O)CSc2nnc3c(C)cc4c(C)ccc(C)c4n23)no1	10	-1.2	.	-3	-4%	-41	0.6	-1.0
COc1ccc(NC(=O)c2ccc(Cl)c(S(=O)(=O)N3CCc4ccccc4C3)c2)cn1	-8	4.2	.	21	-3%&-6%	28	-0.1	7.6
COc1ccc2nc(C)cc(SCC(=O)N/N=C/c3cccc4ccccc34)c2c1	19	2.7	.	7	29%	4	1.8	0.8
O=C1NC(c2ccc(Cl)c([N+](=O)[O-])c2)Nc2ccccc21 (stereo not given)	1	1.7	-0.1	-2	-4%	8	0.7	2.0
CCCN1CCN(C(=O)C2CCN(S(=O)(=O)c3c(C)noc3/C=C/c3ccc(C)cc3)CC2)CC1	12	-0.7	21	20	-8%	33	0.8	-4.7
O=C(NCCCN1CCCC1=O)c1ccc2c(=O)n(-c3ccccc3F)c(=S)[nH]c2c1	-4	1.6	-0.7	0	-58%	7	0.4	-1.3
CC(NC(=O)c1ccc(Br)o1)C1CCCO1 (stereo not given)	0	-2.6	-0.8	0	-3%	-7	0.1	-0.9
O=C(CN1CCN(Cc2ccccc2)CC1)Nc1ccc([N+](=O)[O-])cc1C(=O)Nc1ccccc1F	1	?	.	23	6%	45	-0.5	-1.9
Cc1ccccc1-n1nnnc1SC(C)C(=O)NC1CCCc2ccccc21 (stereo not given)	-7	-3.0	.	2	.	5	0.1	3.5

Arranged by value in RanGTP-Impb inh (high to low): 3 of the compounds above.
mol | RanGTP-Impb inh | AF4-AF9 inh | Vif A3G | LANA-H2A inh
Cc1ccc(NS(=O)(=O)c2cc(NC(=O)c3ccc4c(c3)NC(=O)CS4)ccc2C)c(C)c1 | 4.0 | -1.4 | . | 3.6
Cc1cc(NC(=O)CSc2nnc3c(C)cc4c(C)ccc(C)c4n23)no1 | -1.2 | . | -4% | -1.0
Cc1sc2nc(CSC(C)C(=O)N(C)CC(=O)Nc3ccccc3C(F)(F)F)[nH]c(=O)c2c1C (stereo not given) | -7.9 | -19 | 2% | -1.8

Arranged by heavy-atom count (smallest number first): part of the list above
SMILES	Beta apoptosis	RanGTP-Impb inh	AF4-AF9 inh	Calb FLC	Vif A3G	T cruzi inh	Bfl-1 A1 inh	LANA-H2A inh
O=C(CCNC(=O)c1ccco1)Nc1ccccc1OC(F)F	-6	6.8	-0.7	2	.	2	-0.4	2.2
COc1ccc2nc(C)cc(SCC(=O)N/N=C/c3cccc4ccccc34)c2c1	19	2.7	.	7	29%	4	1.8	0.8
CS(=O)(=O)N(CC(=O)Nc1ccc(S(=O)(=O)N2CCOCC2)cc1)c1cccc(F)c1	-1	2.3	-1.1	6	29%	-4	0.1	-4.6

Back to the main list, starting 4 compounds before the break.
SMILES	Beta apoptosis	RanGTP-Impb inh	AF4-AF9 inh	Calb FLC	Vif A3G	T cruzi inh	Bfl-1 A1 inh	LANA-H2A inh
O=C(NCCCN1CCCC1=O)c1ccc2c(=O)n(-c3ccccc3F)c(=S)[nH]c2c1	-4	1.6	-0.7	0	-58%	7	0.4	-1.3
CC(NC(=O)c1ccc(Br)o1)C1CCCO1 (stereo not given)	0	-2.6	-0.8	0	-3%	-7	0.1	-0.9
O=C(CN1CCN(Cc2ccccc2)CC1)Nc1ccc([N+](=O)[O-])cc1C(=O)Nc1ccccc1F	1	?	.	23	6%	45	-0.5	-1.9
Cc1ccccc1-n1nnnc1SC(C)C(=O)NC1CCCc2ccccc21 (stereo not given)	-7	-3.0	.	2	.	5	0.1	3.5
CCCCNC(=O)c1ccc2c(SCC(=O)O)c3c(nc2c1)CCCC3	4	2.2	.	-2	?	-7	0.3	.
CCOC(=O)c1ccc2c(c1)N(CC)C(=O)c1ccccc1S2	-10	4.5	.	2	-9%	7	-0.1	-6.9
CCN(C[C@H]1N[C@@](Cc2ccccc2)(C(=O)OC)[C@H]2C(=O)N(C)C(=O)[C@@H]12)C(=O)COC	-1	.	-4.5	.	5%	.	0.1	-147
CSc1ccc(S(=O)(=O)NCC(=O)OCC(=O)N2CC(C)CC(C)C2)cc1[N+](=O)[O-] (stereo not given)	-4	4.4	8.7	-2	6%	-14	0.5	-0.2
O=C(OCCN1CCCCC1)c1cccc(Cl)c1	-3	-0.7	-5.8	24	.	-1	-0.1	2.0
COCCCNC(=S)NNC(=O)c1cc(Cl)c(O)c(Cl)c1	-5	0.4	9.1	1	25%	-9	-0.7	12
Cc1c(NC(=O)CSc2ccc3ccccc3n2)c(=O)n(-c2ccccc2)n1C	-1	.	-1.4	.	-12%	.	0.6	-0.5
CC1(C)CC(=O)N(CC(=O)NCc2ccc(F)cc2)c2ccccc2S1(=O)=O	-6	2.2	-3.6	-2	-4%	-13	0.1	5.2
N#Cc1ccc(OCC(=O)NNC(=S)NC2CCCCC2)cc1	-13	.	-0.7	.	-11%	.	0.3	-349
Cc1cccc(N2CCN(C(=O)CCC(=O)N3CCOc4ccc(Cl)cc43)CC2C)c1 (stereo not given)	-1	-1.8	9.3	5	.	5	.	-0.9
COc1ccc(S(=O)(=O)c2c[nH]c(=S)[nH]c2=O)cc1Cl	-4	-1.4	-4.3	-3	-5%	-7	-0.8	1.7
COc1ccc(SCC(=O)Nc2ccc(N3CCN(C)CC3)c(F)c2)cc1	-12	-0.6	3.1	0	-2%	33	0.4	2.5
COc1ccc(C(=O)O)cc1S(=O)(=O)NC(C)C12CC3CC(CC(C3)C1)C2 (stereo not given)	1	.	-0.6	.	.	.	0.4	1.0
COc1ccc(C(=O)NC(=O)COC(=O)C2COc3ccccc3O2)cc1 (stereo not given)	0	2.5	.	1	1%	5	0.3	0.3
CC(C)Nc1ccc(C(CC(N)=O)NC(=O)c2ccc(Br)cc2)cc1[N+](=O)[O-] (stereo not given)	-12	-2.9	-11	-9	.	-3	-0.2	-3.3
O=S1(=O)CCN(Cc2ccccn2)CC1	0	1.1	3.6	-7	1%	13	0.1	-3.1
CCOc1ccc(S(=O)(=O)N2CCOCC2)cc1NC(=O)C1=COCCO1	-3	3.2	-3.2	8	1%	1	0.1	1.2
COc1ccc(C)cc1NC(=O)CN1C(=O)c2cccc3cccc1c23	9	1.8	.	41	0%	2	0.3	4.0
CC1CC(C)CN(CCCNS(=O)(=O)c2ccc3c(c2)oc(=O)n3C)C1 (stereo not given)	3	-0.1	-0.5	1	-1%	2	0.6	-2.7
Cc1ccc(CNc2cnccn2)cc1	-5	-0.2	.	-15	7%	11	0.1	-2.3
Oc1ccc(C2=NNC(c3ccc(O)cc3)=NN2)cc1	-2	1.6	-34	94*	-11%	-1	0.3	1.7
COc1cc(CN(C(=O)c2cccs2)C2CCS(=O)(=O)C2)cc(OC)c1OC (stereo not given)	.	-1.6	-2.0	?	6%	-17	.	.
CCOC(=O)C1CCN(S(=O)(=O)c2ccc(-c3cc(C(F)(F)F)n(C)n3)s2)CC1	-2	2.2	-3.5	-3	1%	-14	1.6	1.2
Cn1c(CN2CCCCC2)nc2cc(NS(=O)(=O)c3ccc(F)cc3)ccc21	.	?	0.3	-11	?	7	0.8	4.1
Nn1c(SCc2cccc(Oc3ccccc3)c2)nnc1C(F)(F)F	-1	-3.5	-1.2	13	-6%	2	0.4	1.8
CCOC(=O)C1(CCOc2ccccc2)CCN(Cc2ccc(OCC)c(CO)c2)CC1	4	-0.9	4.3	-6	0%	38	-0.3	4.3
Cc1ccccc1OCCn1c(=S)[nH]c2ccccc21	-5	2.1	3.3	-43	9%	-23	0.6	-6.6
O=c1nc2cccc3c2=c(/c1=C(\O)c1ccccc1)c1ccccc1c3=O	2	1.3	-0.2	8	.	11	-0.5	-1.8
Cc1cccc(NC(=O)c2sc3nc4c(c(-c5cccs5)c3c2N)CN(C)CC4)c1	-1	-7.7	.	-7	?	40	-0.4	3.2
C/C(=N\NC(=O)c1c(C)nc2ccccn12)c1ccccc1F	3	-1.0	-0.1	-6	.	7	-0.1	9.7

Profiles, quoted from the list:
CC(C)Nc1ccc(C(CC(N)=O)NC(=O)c2ccc(Br)cc2)cc1[N+](=O)[O-] (stereo not given) in the list: Beta apoptosis: -12; RanGTP-Impb inh: -2.9; AF4-AF9 inh: -11; Calb FLC: -9; Vif A3G: .; T cruzi inh: -3; Bfl-1 A1 inh: -0.2; LANA-H2A inh: -3.3
Oc1ccc(C2=NNC(c3ccc(O)cc3)=NN2)cc1 in the list: Beta apoptosis: -2; RanGTP-Impb inh: 1.6; AF4-AF9 inh: -34; Calb FLC: 94*; Vif A3G: -11%; T cruzi inh: -1; Bfl-1 A1 inh: 0.3; LANA-H2A inh: 1.7
